From PubChem
Beta2AR agonist: agonists of human beta-2 adrenergic receptor inducing internalization; P07550; Am2.2-beta2AR cells, FAP receptor internalization, flow cytometry; reference of the scale not given here; response, % (concentration not given with the values); 340,000 tested, 0.43% active; AID 504454;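 active = response above a set limit, near 3 SD of response in nonfluorescent compounds, cut at about 42% in these data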;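 also: stock transfer was 100 nL into about 11 µL; a reference agonist was the positive control; negative values mostly stem from fluorescent compounds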
T cruzi inh: blocks replication of Trypanosoma cruzi; T. cruzi beta-gal in NIH3T3, luminescence, 90 h; inhibition, % (concentration not given with the values); 300,000 tested, 1.4% active;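 active = mean inhibition across valid replicates above about 55%, limit read from the data; inconclusive = mean below that limit but half or more replicates reach it; inactive = mean below it, under half of replicates reach it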;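 also: signal also drops with host cell toxicity which is not excluded here; 0% = plate median of DMSO wells and 100% = zero luminescence signal; higher percent means less beta-gal luminescence so fewer parasites; stock transfer was 50 nL into about 50 µL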
Bfl-1 A1 inh: inhibitors of the anti-apoptotic protein A1, read as caspase activation; MEF A1-2A-BIM cells, Caspase-Glo 3/7 luminescence, 3 h; percent of clofoctol response, vehicle zero; caspase activation, % (concentration not given with the values); 330,000 tested, 0.066% active;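 active = over half of replicate activation scores above 10%, or exactly half above 10 with the replicate mean above 10; inconclusive = replicate mean below 10 yet half the replicates above 10; inactive = over half of replicates below 10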;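 also: wells of about 30 µL received 50 nL stock; many hits fall short of the cut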
LANA-H2B inh: blocks KSHV LANA binding to histone H2A/H2B; cell-free LANA-H2A/H2B peptide, fluorescence polarization; Q9QR71; inhibition, % (test concentration not listed); 320,000 tested, 0.6% active; in the data active = inhibition mostly above about 10%, no sharp cut-off; inactive = mostly below about 6.7%;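 also: stock transfer was 7.5 nL into about 10 µL; 0% = median of vehicle wells and 100% = median of positive control wells; one replicate is shown; the record names a cut of 25% in any replicate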
Target sequence (Q9QR71 whole entry, looked up): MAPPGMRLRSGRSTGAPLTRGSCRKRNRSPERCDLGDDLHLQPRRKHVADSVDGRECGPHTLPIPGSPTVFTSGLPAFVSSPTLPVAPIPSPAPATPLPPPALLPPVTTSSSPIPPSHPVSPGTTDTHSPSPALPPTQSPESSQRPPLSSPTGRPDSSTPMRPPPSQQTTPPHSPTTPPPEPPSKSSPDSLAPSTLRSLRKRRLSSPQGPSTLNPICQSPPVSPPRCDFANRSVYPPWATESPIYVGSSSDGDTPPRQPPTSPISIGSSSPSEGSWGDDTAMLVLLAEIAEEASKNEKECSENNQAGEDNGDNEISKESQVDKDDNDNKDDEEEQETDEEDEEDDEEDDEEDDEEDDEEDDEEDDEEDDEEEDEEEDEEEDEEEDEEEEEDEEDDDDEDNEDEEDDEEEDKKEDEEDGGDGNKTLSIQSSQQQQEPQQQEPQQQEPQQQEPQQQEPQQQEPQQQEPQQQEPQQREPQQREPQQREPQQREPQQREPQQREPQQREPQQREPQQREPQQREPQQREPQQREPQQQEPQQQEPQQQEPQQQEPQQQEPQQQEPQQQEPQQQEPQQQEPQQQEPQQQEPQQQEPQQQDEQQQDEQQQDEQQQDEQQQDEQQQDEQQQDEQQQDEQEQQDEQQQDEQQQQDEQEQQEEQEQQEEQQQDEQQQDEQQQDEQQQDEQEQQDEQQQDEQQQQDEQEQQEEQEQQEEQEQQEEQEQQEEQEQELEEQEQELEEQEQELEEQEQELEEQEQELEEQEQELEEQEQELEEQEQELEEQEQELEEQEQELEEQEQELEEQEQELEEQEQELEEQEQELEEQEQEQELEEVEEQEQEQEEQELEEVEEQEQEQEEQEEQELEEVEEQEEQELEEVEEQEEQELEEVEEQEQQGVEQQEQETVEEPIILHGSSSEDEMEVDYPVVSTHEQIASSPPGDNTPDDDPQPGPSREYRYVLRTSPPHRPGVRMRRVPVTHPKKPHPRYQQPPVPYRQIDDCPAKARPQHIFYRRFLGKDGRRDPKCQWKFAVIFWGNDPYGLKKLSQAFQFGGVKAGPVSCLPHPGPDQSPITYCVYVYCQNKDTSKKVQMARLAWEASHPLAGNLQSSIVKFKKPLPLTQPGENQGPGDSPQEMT
RanGTP-Impb inh: inhibitors of RanGTP-importin-beta interaction, primary screen, biochemical, FRET, CFP-Ran, YFP-importin-beta, homogeneous; inhibition, % (concentration not given with the values); 300,000 tested, 1.1% active; cell-free CFP-Ran/YFP-importin-beta FRET ratio;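 active = most replicates above 15%; inconclusive = exactly half above 15%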;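 also: 0% = DMSO wells and 100% = Ran loaded with GDP instead of GTP; wells of about 40 µL received 100 nL stock; the first replicate is given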
Calb FLC: affects C. albicans growth with fluconazole; AID 1979; growth inhibition, % (no concentration beside the values); C. albicans CaCi-2 (fluconazole-resistant clinical isolate) + fluconazole, Alamar Blue growth, 48 h; 300,000 tested, 0.57% active;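 active = most replicates above 75%; inconclusive = exactly half above 75%; inactive = most below 75%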;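 also: all wells also contain fluconazole at 8 µg/ml as a sub-toxic cotreatment; 0% = median of DMSO wells and 100% = median of geldanamycin control wells; wells of about 8 µL received 7.5 nL stock; the first replicate is given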
Beta cell apopt: blocks beta cell apoptosis; INS-1E cytokine-induced death, ATP luminescence, 48 h; percent of positive-control rescue, neutral wells zero; protection from apoptosis, % (test concentration not listed); 300,000 tested, 0.8% active; AID 435005;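 active = all replicates at 75% or more, or half of them and the mean; inconclusive = half reach 75% but not the mean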;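 also: 0% = cytokine-treated negative control wells and 100% = positive control rescue; higher means more ATP so stronger rescue from cytokine killing; wells of about 40 µL received 100 nL stock; the first replicate is given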
UCH37 DUB inh: human UCH37 deubiquitinating enzyme inhibition. Q9Y5K5. 330,000 tested, 0.33% active. inhibition, % (concentration not given with the values). purified proteasome/UCH37, Ub-AMC cleavage fluorescence. AID 588478;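 active = mean of two replicates above 20%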;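 also: 0% = compound-free wells with enzyme and 100% = wells lacking proteasome; stock transfer was 100 nL into about 20 µL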
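Material: human UCH37 enzyme supplied as purified proteasome complex / Amount: 0.15 nM proteasome as dispensed / Buffer or medium: pH 7.4 Tris-HCl (50 mM) with ovalbumin, ATP-MgCl2, DTT / Times: preincubation 30 min, reaction 25 min, room temperature / Technique: AMC fluorescence from Ub-AMC cleavage, excitation 355 nm, emission 460 nm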
* hit, by the source's call; ? = inconclusive; · = not tested or not shown.

SMILES | Beta2AR agonist | T cruzi inh | Bfl-1 A1 inh | LANA-H2B inh | RanGTP-Impb inh | Calb FLC | Beta cell apopt | UCH37 DUB inh
Cc1ccc(S(=O)(=O)N(C)CC(=O)OCC(=O)NC(c2ccccc2)c2ccccc2)cc1 | 9 | -9 | -0.1 | 5.4 | -1.2 | -7 | -15 | 1.3
COc1ccccc1CNC(=O)C(=O)NCC1CCCN1S(=O)(=O)c1cccs1 (stereo not given) | -7 | 62* | 0.5 | -14 | 6.4 | -4 | 2 | 1.6
CCOC(=O)CNC(=O)c1ccc(Br)s1 | 7 | -7 | 0.1 | 0.0 | 5.1 | 4 | 0 | -0.4
CCC1CCCCN1CCCNC(=O)c1ccc2c(c1)c(C)c(C)n2CC (stereo not given) | 19 | 21 | ? | 6.5 | 1.3 | 1 | -1 | -1.7
COC(=O)CSc1nnc(CNC(=O)c2cccs2)n1-c1cccc(C)c1 | 11 | -9 | · | · | 6.1 | 18 | · | ·
O=C1CN(C(=O)CSc2nncn2-c2ccccc2)c2ccccc2N1 | -12 | -31 | 1.0 | 1.3 | 6.4 | 3 | 4 | 5.4
COc1ccc(CNC(=O)C(c2ccco2)N(C(=O)c2csnn2)c2cccc(C)c2C)cc1 (stereo not given) | 3 | 7 | ? | 6.0 | -3.7 | 4 | 1 | 2.9
CN1CCN(C2Cc3ccccc3Sc3ccc(Cl)cc32)CC1 (stereo not given) | 17 | · | 0.0 | -1.3 | · | · | 9 | 0.6
Cc1c(NS(=O)(=O)c2cccc(C(=O)O)c2)c(=O)n(-c2ccccc2)n1C | 2 | -12 | 0.5 | -1.5 | -2.1 | -19 | -1 | 4.8
Cc1cccc(C)c1OC(=O)CSc1nnc(-c2ccccc2O)o1 | 2 | -18 | -0.7 | -2.4 | 8.8 | 1 | -3 | -15
O=C(CNCc1ccc(F)cc1)Nc1cc(S(=O)(=O)N2CCOCC2)ccc1Cl | 8 | · | 0.4 | 0.8 | · | · | 8 | -4.0
CCC(C)NC(=O)C1(C)CCC(=O)N1CCc1ccc(OC)c(OC)c1 (stereo not given) | 1 | 5 | 0.2 | -3.2 | -0.3 | -8 | -4 | 4.6
CCc1c(C)nc(N2CCN(Cc3ccccc3)CC2)[nH]c1=O | 0 | -13 | 0.7 | 0.1 | -0.7 | -4 | -3 | 0.7
Cc1ccc(S(=O)(=O)NCCCCCC(=O)Nc2ccccn2)cc1 | -13 | -1 | 0.0 | -3.7 | -2.2 | -2 | -8 | 2.4
C=CCC1CCC/C(=N\NS(=O)(=O)c2ccc(C)cc2)C1 (stereo not given) | 9 | -5 | 0.5 | 1.6 | 1.9 | -4 | -2 | ·
CCCOc1ccc(-c2nc(C#N)c(N3CCN(C)CC3)o2)cc1 | -10 | 41 | -0.4 | 2.4 | 4.7 | -7 | -5 | -6.6
COc1ccc(S(=O)(=O)NCCc2cn3cccc(C)c3n2)cc1OC | 15 | -6 | -0.2 | 1.4 | 2.1 | 4 | -7 | 5.1
O=S(=O)(NC1CCCC1)c1ccc(S(=O)(=O)N2CCCN(Cc3ccccc3)C2)cc1 | -6 | 30 | 0.0 | -1.3 | 5.5 | -3 | · | -1.8
O=C(CCSCCc1ccccn1)Nc1ccc(Cc2ccncc2)cc1 | -17 | -4 | 0.1 | -3.0 | 1.0 | -21 | -2 | 0.9
O=C(N=C1N=C2C=CC(Br)=CN2Cc2ccccc21)c1ccc([N+](=O)[O-])cc1[N+](=O)[O-] | -6 | 57* | -5.1 | -0.9 | -1.0 | -1 | -1 | ·
COCCNC(=O)COCc1cc(-c2ccc3c(c2)OCO3)on1 | -6 | -15 | -0.5 | -1.7 | -0.3 | -1 | -7 | 3.6
O=C1C2C3CCC(C3)C2C(=O)N1c1ccc(OS(=O)(=O)c2ccccc2)cc1 (stereo not given) | 2 | 1 | -0.3 | 0.7 | 2.7 | 0 | -6 | 2.0
Cc1cc(C)nc(Nc2n[nH]c(-c3ccccc3C)n2)n1 | -1 | -10 | -2.1 | -2.8 | 6.0 | -5 | 6 | -2.9
COc1cccc(CNC(=O)CCC2CCCN(C(=O)c3cc(C)[nH]n3)C2)c1 (stereo not given) | 1 | 0 | -0.6 | -1.7 | 0.2 | 25 | -2 | 3.5
O=C(CSc1cccc[n+]1[O-])NCCCc1ccccc1 | 3 | -2 | 0.4 | -0.8 | 4.8 | 13 | -2 | 4.7
O=C(Oc1ccc(C(=S)N2CCOCC2)cc1)c1cc([N+](=O)[O-])cc([N+](=O)[O-])c1 | -2 | 5 | -1.4 | 1.5 | -2.1 | 1 | -6 | 6.0
O=c1[nH]cc(I)cc1I | -11 | 0 | · | · | 5.6 | 0 | · | 1.0
CCOC(=O)C1(Cc2ccc(Cl)cc2)CCN(C(=O)C2=NNC(=O)CC2)CC1 | -10 | -18 | 0.3 | -2.4 | ? | -2 | -4 | 0.4
COc1cccc(NC(=O)Nc2nnc(Cc3ccc(OC)c(OC)c3)s2)c1 | 19 | -20 | -0.3 | -8.1 | -2.0 | -4 | -4 | -0.5
N/C(Cc1ccc([N+](=O)[O-])cc1)=N\OC(=O)c1ccco1 | 2 | 0 | 0.5 | -2.3 | 1.1 | -3 | 2 | ·
CSc1nc(-c2ccco2)nn1C(=O)c1ccc(C)cc1 | 5 | -13 | 0.6 | 2.3 | -2.7 | 6 | -9 | 1.8
Cc1ccc(CC(=O)N2CC(C)OC(C)C2)cc1 (stereo not given) | 9 | -2 | 0.3 | -3.1 | 3.8 | 0 | 0 | -0.1
COc1cc(C)c(S(=O)(=O)Nc2ccccc2F)cc1C | 8 | 3 | 2.8 | 3.3 | -1.2 | -7 | 3 | 6.1
CN1/C(=C\C(=O)COC(=O)c2ccccc2O)C(C)(C)c2ccccc21 | 4 | 18 | 0.5 | 1.7 | -2.3 | -2 | 12 | -9.7
COc1cc2ccccc2cc1C(=O)N(CCN(C)C)c1nc2ccc(Br)cc2s1 | 5 | 51 | -0.4 | 1.6 | 5.9 | 102* | -3 | 1.8
O=C(Nc1ccc(OC(F)(F)F)cc1)C1CC(c2ccc(F)cc2)=NO1 (stereo not given) | -5 | 4 | 0.0 | 2.4 | -2.4 | ? | -5 | 1.7
CCc1cccc(C)c1NC(=O)CN1CCN(S(=O)(=O)c2ccc(C(C)(C)C)cc2)CC1 | 0 | 13 | 0.7 | 0.5 | -1.4 | -4 | -1 | 6.2
O=C(OCn1nnc2ccccc2c1=O)c1cc2ccccc2o1 | -2 | -9 | 0.0 | -0.1 | 7.5 | -5 | -4 | 1.8
CCN(Cc1ccccc1)C(=O)Cn1c(=O)n(CC(=O)N2CCCCC2)c(=O)c2sccc21 | -6 | 6 | -0.7 | 3.8 | -0.2 | 4 | · | 0.5
CC(=O)C1C(c2ccc(C)cc2)c2c(n[nH]c2C)CC1(C)O (stereo not given) | 4 | -4 | 0.3 | -5.6 | -2.7 | -10 | -9 | -0.1
COc1cccc(CNC(=O)CCNC(=O)c2ccccc2OC)c1 | 0 | -5 | -0.5 | 4.0 | 0.7 | 3 | -7 | 1.5
N#Cc1c(N)c(C(=O)c2ccccc2)n2c1CCCC2 | 10 | 2 | 1.3 | -1.8 | 2.0 | 18 | -5 | 8.2
CC1CC(C)CN(C(=O)c2nn(C)c3c2CS(=O)(=O)c2ccccc2-3)C1 (stereo not given) | -2 | 3 | 0.3 | 0.9 | 3.6 | -1 | -1 | 2.1
C/C(=N\NC(=O)CNc1ccccc1Cl)C(C)(C)C | 6 | 2 | -1.6 | 0.3 | 9.3 | -3 | 4 | ·
CNC(=S)Nc1cc(OC)c(NC(=O)c2ccco2)cc1OC | -1 | -10 | 1.2 | 1.0 | 2.2 | ? | · | 2.7
Cc1ccc(CNC(=O)C2CCC(CNS(=O)(=O)c3cccc4cccnc34)CC2)cc1 (stereo not given) | 1 | 2 | 0.4 | 4.3 | 5.3 | 1 | -2 | 1.5
Cc1onc(NC(=O)CSCC(=O)O)c1Br | -4 | -5 | 0.0 | -3.6 | 1.0 | -15 | -2 | 1.9
Cc1ccc(N(C)S(=O)(=O)c2ccc3c(c2)NC(=O)C(C)S3)cc1 (stereo not given) | -2 | -21 | 0.2 | 0.6 | -0.4 | 12 | -7 | 2.9
CCOc1ccc(C2C(C#N)=C(N)SC(N)=C2C#N)c(OCC)c1 | -20 | -1 | 0.1 | -14 | 19* | -2 | -2 | 1.5
C=CCN1CCN(Cc2cnc(Cl)s2)CC1 | 0 | -6 | 0.9 | -5.9 | 6.9 | ? | 0 | 0.8
COCCNC(=O)C(c1ccco1)N(C(=O)Cn1nnc2ccccc21)c1cc(C)ccc1C (stereo not given) | -3 | -5 | -0.4 | 8.7 | -4.1 | 1 | -2 | 0.3
COc1ccccc1CNC(=O)CNC(=O)c1ccc(Br)o1 | -1 | -1 | 0.4 | -1.4 | 4.5 | -2 | · | 3.5
CC(Sc1nc(-c2ccccc2)cc(C(F)(F)F)n1)C(=O)N1CCOCC1 (stereo not given) | 91* | -10 | 0.1 | -3.9 | 4.4 | -1 | 4 | 6.4
CCC(C)(C)NC(=O)C(c1ccc(O)cc1)N(CCOC)C(=O)CCC(=O)Nc1nccs1 (stereo not given) | -7 | 20 | 1.7 | 4.0 | 0.7 | -4 | 3 | 3.5
Cc1c(C(=O)OCc2nc3ccsc3c(=O)[nH]2)oc2ccccc12 | -1 | · | 0.0 | 0.1 | · | · | -6 | -1.5
Cc1nc(NC(=O)COC(=O)C2=NNC(=O)CC2)c(Cl)cc1Cl | 3 | -21 | -0.7 | -3.2 | 0.0 | ? | -5 | 3.0
Cc1ccc(Cn2nc(C)c(NC(=O)CCCn3nc(C)c([N+](=O)[O-])c3C)c2C)cc1 | -1 | 13 | 0.0 | -4.0 | -0.5 | 2 | 0 | 2.4
CC(C)(C)NC(=O)C(=O)N/N=C/c1ccc(Br)cc1 | 0 | -5 | -0.1 | -0.6 | 1.6 | 1 | -9 | ·
CC(C)(C)OC(=O)N1CC=C2C(C#N)=C(N)C(C#N)(C#N)[C@H](c3cccnc3)[C@H]2C1 | 8 | 8 | -0.4 | -1.6 | 18* | -6 | 2 | -77
CCOc1ccc(NS(=O)(=O)c2c(C(=O)N3CCCCCC3)c(C)n(C)c2C)cc1 | -9 | -7 | 0.4 | -2.0 | 4.7 | -5 | -3 | 7.0
CCCCSc1nc(SCC(=O)NCc2ccco2)c2c3c(sc2n1)COC(C)(CC)C3 (stereo not given) | 5 | 52 | 0.1 | 0.8 | -4.0 | ? | 8 | -6.9
COc1ccccc1C(=O)NC1CCCCCCC1 | -19 | 4 | 0.1 | 0.7 | ? | 2 | -9 | 1.3

Entries listed above marked active in Beta2AR agonist.
Structure | Beta2AR agonist | LANA-H2B inh | RanGTP-Impb inh | UCH37 DUB inh
CC(Sc1nc(-c2ccccc2)cc(C(F)(F)F)n1)C(=O)N1CCOCC1 (stereo not given) | 91* | -3.9 | 4.4 | 6.4
